# Screening results (PubChem)
# Ecoli growth: E. coli growth inhibition. Escherichia coli growth, OD600, 23 h; hits give low values. OD600 absorbance (concentration not given with the values). actives 0.21% (n = 330,000). AID 1053175;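 active = OD600 absorbance below the run mean of sample wells minus 3.6 SD, in any replicate, cut at about 0.56 in these data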;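 also: stock transfer was 300 nL into about 60 µL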
# Vif TR-FRET: inhibitors of Vif binding to APOBEC3G peptide, primary screen, biochemical, TR-FRET, GST-Vif 1-94, biotin-A3G peptide, dose response retest (AID 1117319) | one-dose inhibition, %; IC50 in µM for titrated hits | TR-FRET GST-Vif / biotin-A3G peptide binding; higher % means a stronger effect; test concentration not given here; strong numbers were not always called active | actives 0.57% (n = 260,000);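 active = above the screen mean plus three standard deviations and confirmed in dose response; inconclusive = results disagree or hit not tested in dose response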;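 also: Vif residues 1-94 fused to GST binding biotinylated APOBEC3G peptide 110-148; 0% = full assay without inhibitor and 100% = GST in place of GST-Vif; retest series ran down from 100 µM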
# ALR H2O2 inh: human ALR oxidase inhibition via reduced H2O2 | P55789 | purified ALR, DTT oxidation, H2O2 HRP-luminol luminescence | inhibition, % (test concentration not listed) | actives 3.8% (n = 290,000) | AID 485317;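 active = mean and each replicate at 75% or more; inconclusive = only one of the two met; inactive = neither met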;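 also: stock transfer was 7.5 nL into about 7.5 µL; 0% = neutral wells and 100% = wells with inactivated enzyme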
# Target sequence (P55789 whole entry, looked up): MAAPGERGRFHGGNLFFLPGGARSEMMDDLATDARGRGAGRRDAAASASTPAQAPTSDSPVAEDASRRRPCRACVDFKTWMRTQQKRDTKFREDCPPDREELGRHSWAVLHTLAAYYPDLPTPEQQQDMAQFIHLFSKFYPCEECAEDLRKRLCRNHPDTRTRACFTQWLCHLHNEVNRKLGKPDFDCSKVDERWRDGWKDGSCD
# FGF22 binding: shifts melting point of recombinant human FGF22. calls only at 9.99 µM. recombinant FGF22 thermal shift, SYPRO orange fluorescence; percent of sucrose octasulfate shift, DMSO zero. Q9HCT0. AID 651658. actives 1.5% (n = 340,000);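 active = melting point raised past a set limit in the mean and every replicate; inconclusive = no clear call; three in four hits are not shown here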
# Target sequence (Q9HCT0 whole entry, looked up): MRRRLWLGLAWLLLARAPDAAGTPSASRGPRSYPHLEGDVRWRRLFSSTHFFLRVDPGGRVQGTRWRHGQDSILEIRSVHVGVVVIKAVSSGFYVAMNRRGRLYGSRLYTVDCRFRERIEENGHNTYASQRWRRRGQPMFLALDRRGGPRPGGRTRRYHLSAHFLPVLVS
# rRNA inh HTS: inhibits bacterial ribosomal RNA function over humanized ribosomes; E. coli WT GFP vs humanized-ribosome RFP mutants, fluorescence, 24 h; hits give low values; DMSO median 0, no signal -100; GFP signal change (wild-type ribosome), % (concentration not given with the values); actives 1.6% (n = 350,000); AID 720706;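 active = significant combined selectivity score with lowered wild-type GFP, culture density cut under 30%, mutant RFP and density less affected; inactive = any of these conditions unmet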; also: one replicate is shown; some compounds called inactive have numbers as strong as hits
# HNF4A DNA FP: change in binding of human HNF4 alpha to DNA; activity change, % at 10 µM; HNF4a-FITC DNA binding, fluorescence polarization, 1 h; actives 0.3% (n = 360,000); P41235; in the data active = activity change above about 30%, passing the limit was not always enough;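 also: controls were the assay level and a saturating level of protein; the project sought stronger binding though the title names inhibitors; some compounds called inactive have numbers as strong as hits; positive values seem to mean higher polarization but the record does not say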
# MLL AF4-AF9 inh: blocks AF4 peptide binding to human AF9 | P42568 | AlphaScreen, biotin-AF4 peptide binding to FLAG-AF9 | inhibition, % at 10 µM | actives 0.47% (n = 350,000);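 active = every replicate reaching a set inhibition limit, whatever the replicate mean, cut at about 25% in these data; inconclusive = mean inhibition reaches that limit but some replicates miss it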;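 also: 0% = plate neutral control median and 100% = total signal loss; the record names both 10 and 1 µM as test concentration; the first replicate is given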
# Target sequence (P42568 whole entry, looked up): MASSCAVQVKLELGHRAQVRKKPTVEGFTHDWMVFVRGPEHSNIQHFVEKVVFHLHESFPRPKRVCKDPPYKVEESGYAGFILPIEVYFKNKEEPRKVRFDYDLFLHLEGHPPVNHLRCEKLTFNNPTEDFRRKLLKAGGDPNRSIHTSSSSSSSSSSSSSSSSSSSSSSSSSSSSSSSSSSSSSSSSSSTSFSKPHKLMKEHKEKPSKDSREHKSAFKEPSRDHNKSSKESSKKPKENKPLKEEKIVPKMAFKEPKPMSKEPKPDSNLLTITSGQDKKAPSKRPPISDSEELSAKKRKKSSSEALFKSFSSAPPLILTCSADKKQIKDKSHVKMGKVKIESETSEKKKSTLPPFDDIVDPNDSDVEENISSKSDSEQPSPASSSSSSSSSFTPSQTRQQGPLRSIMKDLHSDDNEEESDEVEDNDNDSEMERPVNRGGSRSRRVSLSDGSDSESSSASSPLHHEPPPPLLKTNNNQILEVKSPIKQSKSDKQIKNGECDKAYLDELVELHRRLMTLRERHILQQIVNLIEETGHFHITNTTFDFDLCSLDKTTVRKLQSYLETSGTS
# rRNA inh HTS OD600: recorded beside rRNA inh HTS, whose call it bears; OD600 change, %; measured here: OD600 growth;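 optical density of the mix in the first replicate; 0 = DMSO median and -100 = no signal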
# rRNA inh HTS RFP: also measured in rRNA inh HTS; calls as there; RFP signal change, %; measured here: RFP humanized mutant strains;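 first replicate; 0 = DMSO median and -100 = no signal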
# * marks the source's active call; other numbers are inactive results; i = inactive; ? = inconclusive; . = not tested or not shown; + = active, no number; & = joins results of further samples. Some of the compounds tested (hit frequency here may not be typical).
# Short forms – A = Ecoli growth; B = Vif TR-FRET; C = ALR H2O2 inh; D = FGF22 binding; E = rRNA inh HTS; F = rRNA inh HTS OD600; G = rRNA inh HTS RFP; H = HNF4A DNA FP; I = MLL AF4-AF9 inh
C[C@@H]1CN([C@H](C)CO)C(=O)c2cc(NC(=O)Nc3ccc(F)cc3)ccc2O[C@@H]1CN(C)S(=O)(=O)c1cccs1
  A: . | B: . | C: . | D: i | E: -7 | F: -11 | G: 2.5 | H: . | I: -0.6
Cc1ccc(C)n1-c1ccccc1N1CCCCC1
  A: 0.71 | B: 6% | C: 16 | D: i | E: 1 | F: -1 | G: 2.4 | H: -2.1 | I: 2.3
COc1ccc(C2CC(c3cccs3)=NN2C(=O)CSc2nnc(N)s2)cc1OC (centres undefined)
  A: 0.66 | B: . | C: -2 | D: i | E: -3 | F: 0 | G: -2.8 | H: 2.1 | I: 6.6
C[C@@H]1CN([C@H](C)CO)S(=O)(=O)c2ccc(-c3ccccc3)cc2O[C@@H]1CN(C)C(=O)Nc1ccccc1F
  A: . | B: . | C: . | D: i | E: -5 | F: -9 | G: 3.9 | H: . | I: 3.2
Cc1cc(C)cc(-n2nnn(C3C/C(=N/NC(N)=S)C4OCC3O4)c2=S)c1 (centres undefined)
  A: . | B: . | C: -5 | D: i | E: -4 | F: -5 | G: 5.4 | H: 3.3 | I: 2.9
CCN(c1ccccc1)S(=O)(=O)c1ccc(C(=O)Nc2nnc(C3CC3)o2)cc1
  A: 0.74 | B: 2% | C: 7 | D: i | E: . | F: . | G: . | H: -1.7 | I: 5.9
O=C(O)CCC(=O)NCCn1c(-c2ccccc2)csc1=Nc1ccccc1
  A: 0.69&0.69 | B: -2%&0% | C: 92* | D: i | E: 7 | F: 18 | G: -0.9 | H: 3.0&0.7 | I: -0.1
COc1cccc(-c2cnc(C(O)c3cc(F)cc(Cl)c3)[nH]2)c1 (centres undefined)
  A: . | B: . | C: . | D: i | E: . | F: . | G: . | H: 0.7 | I: 6.8
CN1CCN(c2cc(N3CCN(C(=O)c4ccco4)CC3)c3c4c(onc24)-c2ccccc2C3=O)CC1
  A: 0.73 | B: . | C: 3 | D: . | E: . | F: . | G: . | H: 9.7 | I: .
CC(=O)c1ccc(N2CCN(Cc3cc(=O)n4c(-c5ccccc5)csc4n3)CC2)cc1
  A: 0.69 | B: . | C: . | D: i | E: -2 | F: 0 | G: 0.6 | H: 7.0 | I: 1.9
O=C(Nc1nccs1)C1=COCCO1
  A: 0.7 | B: -8% | C: 0 | D: i | E: 13 | F: 17 | G: -1.7 | H: -1.4 | I: 1.2
CCOc1ccc(Br)cc1CNc1ccc2c(c1)OCCO2
  A: 0.67 | B: 1% | C: . | D: i | E: -22 | F: -29 | G: -6.6 | H: -0.7 | I: 15
C[C@@H]1CN([C@@H](C)CO)C(=O)c2cc(NC(=O)c3ccncc3)ccc2O[C@@H]1CN(C)Cc1ccc(-c2ccccc2)cc1
  A: . | B: . | C: . | D: i | E: -1 | F: -35 | G: 26 | H: . | I: 7.4
CC1=C(C)/C(=N\OS(=O)(=O)c2ccccc2)C=CC1=O
  A: . | B: 24% | C: 28 | D: . | E: -1 | F: -5 | G: 12 | H: -1.6 | I: .
CCNC(=O)C[C@H]1C=C[C@@H](NC(=O)C2CC2)[C@@H](CO)O1
  A: . | B: . | C: . | D: i | E: 2 | F: 0 | G: -1.9 | H: . | I: -1.0
Cc1cc(NC(=O)CSc2nc3sc4c(c3c(=O)n2C)CCCC4)no1
  A: 0.72 | B: 6% | C: -7 | D: . | E: . | F: . | G: . | H: 1.1 | I: .
O=C(NCCC1=CCCCC1)c1ccc(Cl)c(S(=O)(=O)N2CCCCC2)c1
  A: 0.71 | B: . | C: -1 | D: i | E: -28 | F: -28 | G: -9.0 | H: -0.6 | I: -2.2
COc1ccc(-c2nc(SCC(=O)N(CC(C)C)c3c(N)n(Cc4ccccc4)c(=O)[nH]c3=O)n[nH]2)cc1
  A: 0.6 | B: -3% | C: -8 | D: i | E: 10 | F: 8 | G: -0.4 | H: 2.3 | I: 3.1
CCc1cc2c(NC(C(=O)O)C(C)C)ncnc2s1 (centres undefined)
  A: 0.72 | B: ? | C: . | D: . | E: . | F: . | G: . | H: -2.1 | I: .
COc1ccccc1CN=C1NC(=O)C(CC(=O)Nc2ccc(C(C)=O)cc2)S1 (centres undefined)
  A: 0.73 | B: 6% | C: -6 | D: i | E: -9 | F: -3 | G: 1.4 | H: -0.4 | I: -5.9
CN(O)/C=N/C(=S)Nc1ccc(Cl)cc1Cl
  A: . | B: 12% | C: 3 | D: i | E: 4 | F: 2 | G: -4.8 | H: 2.7 | I: -4.0
CCCCC(=O)c1ccc(O)cc1O
  A: 0.64 | B: 3% | C: 4 | D: . | E: . | F: . | G: . | H: 0.2 | I: .
CCOCC(O)CS(=O)(=O)c1ccccn1 (centres undefined)
  A: 0.67 | B: 0% | C: -9 | D: . | E: 3 | F: 2 | G: -2.8 | H: 7.8 | I: .
CCc1nnc(NC(=O)Cn2c(=O)oc3ccccc32)s1
  A: 0.71 | B: -2% | C: -5 | D: . | E: . | F: . | G: . | H: 0.0 | I: .
CCOC(=O)c1c(NC(=O)CSc2nnc(C)s2)sc2c1CCC(CC)C2 (centres undefined)
  A: 0.65 | B: 10% | C: -12 | D: . | E: . | F: . | G: . | H: 2.5 | I: .
Nn1c(SCC(=O)Nc2cccc(S(N)(=O)=O)c2)nnc1C1CC1
  A: 0.71 | B: 2% | C: -14 | D: i | E: 5 | F: 4 | G: 0.8 | H: 1.9 | I: -2.1
O=C(CNC(=O)c1ccccc1F)NCC(c1cccs1)N1CCOCC1 (centres undefined)
  A: 0.67 | B: -6% | C: -4 | D: i | E: 6 | F: 13 | G: -1.7 | H: 2.0 | I: 3.9
CCOc1ccc(OCC)c(NC(=O)CSCCc2ccccn2)c1
  A: 0.64 | B: -12% | C: -2 | D: i | E: -8 | F: -14 | G: -3.2 | H: 4.2 | I: 0.2
CC1CCN(CC(O)COC2CC(C)CC(C)(C)C2)CC1 (centres undefined)
  A: 0.63 | B: . | C: -3 | D: i | E: 10 | F: -3 | G: 4.1 | H: 2.2 | I: -5.7
COCCNC(=O)CSc1nc2cc(OC)c(OC)cc2c(=O)n1Cc1ccc(OC)cc1
  A: . | B: -6% | C: -6 | D: . | E: . | F: . | G: . | H: 0.2 | I: .

# Later entries
Molecule,Ecoli growth,Vif TR-FRET,ALR H2O2 inh,FGF22 binding,rRNA inh HTS,rRNA inh HTS OD600,rRNA inh HTS RFP,HNF4A DNA FP,MLL AF4-AF9 inh
C[C@H]1CN([C@@H](C)CO)C(=O)c2cc(-c3ccccc3)cnc2O[C@@H]1CN(C)C(=O)C1CCCCC1,.,.,.,i,-7,1,1.4,.,1.2
COc1ccc(Br)c(Cn2c(C)c(C(=O)NCc3ccccc3C(F)(F)F)sc2=O)c1,.,.,.,i,-2,3,-11,-3.5,-0.8
COc1cc(Cn2c3ccc(NC(=O)NCCc4ccccc4)cc3c(=O)n2C)ccc1F,.,.,.,i,-12,-23,6.0,1.6,-0.9
COc1ccc(S(=O)(=O)N(C)C[C@@H]2Oc3c(NS(=O)(=O)c4ccc(C)cc4)cccc3C(=O)N([C@H](C)CO)C[C@@H]2C)cc1,.,.,.,+,-6,3,-3.0,.,0.8
CNC(=S)N1CCN(S(=O)(=O)c2ccc3ccccc3c2)CC1,0.65,.,0,i,-4,-11,2.9,0.6,-0.2
CCCNc1c(NS(=O)(=O)c2ccc(Cl)s2)c(=O)oc2ccccc12,0.64,-15%,1,i,-14,-30,-1.1,-1.3,-4.0
Cc1cccc(NC(=O)c2ccc([N+](=O)[O-])o2)n1,0.53*,-9%,-67,.,.,.,.,0.8,.
C[C@@H]1CN([C@@H](C)CO)C(=O)c2cc(NC(=O)CCC(F)(F)F)ccc2O[C@@H](C)CCCCO[C@H]1CN(C)Cc1ccc(C(=O)O)cc1,.,.,.,i,2,-4,-1.6,.,-4.9
CC(=O)N=c1sc2c3ccccc3ccc2n1C,0.66,2%,-9,i,-11,-10,-7.9,1.6,0.4
Cc1ccc(-c2csc(NC(=O)Cc3cccs3)n2)cc1C,0.75,>100µM*,3,.,.,.,.,-1.1,.
O=C1C2C(c3ccccc3)CC=CC2[C@H](c2ccc3ccccc3c2)N1Cc1ccccc1 (some centres undefined),.,7%,.,i,-7,8,-4.1,-2.5,-4.9
CCc1ccc2c(c1)cc(C)c1nnc(SCC(=O)Nc3cc(OC)c(OC)cc3C(=O)O)n12,0.73,78%,40,.,7,6,2.1,3.0,-1.8
Cc1nc2ccccc2c(C)c1CC(=O)N(C)CC(=O)Nc1cccc(F)c1,0.62,-3%,-1,i,-9,-3,0.1,1.2,0.2
Cn1cnc(S(=O)(=O)N[C@@H]2C=C[C@H](CC(=O)NCC3CC3)O[C@H]2CO)c1,.,.,.,i,1,7,-1.0,.,1.4
CC12CS(=O)(=O)CC1SC(=S)N2c1ccccn1 (centres undefined),0.67,10%,1,.,.,.,.,0.5,.
O=C1N[C@H]2CC=C[C@H]2Nc2ccccc21,0.71,3%,.,i,7,11,2.7,-0.1,-9.2
CCN1C(=O)C(CC(=O)NCCc2ccccc2)N(NC(=O)c2cccnc2)C1=S (centres undefined),0.68,-3%,0,i,-5,-15,-4.8,1.5,-1.5
Cc1c(NS(=O)(=O)c2ccc(NC3CCCC3)c([N+](=O)[O-])c2)c(=O)n(-c2ccccc2)n1C,0.65,.,.,i,-3,0,9.4,-0.8,1.5
COc1cccc(NC(=O)c2nn(C)c3c2CS(=O)(=O)c2ccccc2-3)c1,0.66,1%,-2,i,11,10,-2.5,-6.0,0.4
CCC1Oc2ccccc2C(=O)N(CC(=O)c2ccc3c(c2)OCCO3)C1=O (centres undefined),0.66,.,-3,i,2,1,2.1,-6.7,-0.9

# Part of the list above, with two lines to a compound:
# Results follow in this order: Ecoli growth	Vif TR-FRET	ALR H2O2 inh	FGF22 binding	rRNA inh HTS	rRNA inh HTS OD600	rRNA inh HTS RFP	HNF4A DNA FP	MLL AF4-AF9 inh
> O=C1C2C(c3ccccc3)CC=CC2[C@H](c2ccc3ccccc3c2)N1Cc1ccccc1 (some centres undefined)
 : .	7%	.	i	-7	8	-4.1	-2.5	-4.9
> CCc1ccc2c(c1)cc(C)c1nnc(SCC(=O)Nc3cc(OC)c(OC)cc3C(=O)O)n12
 : 0.73	78%	40	.	7	6	2.1	3.0	-1.8
> Cc1nc2ccccc2c(C)c1CC(=O)N(C)CC(=O)Nc1cccc(F)c1
 : 0.62	-3%	-1	i	-9	-3	0.1	1.2	0.2
> Cn1cnc(S(=O)(=O)N[C@@H]2C=C[C@H](CC(=O)NCC3CC3)O[C@H]2CO)c1
 : .	.	.	i	1	7	-1.0	.	1.4
> CC12CS(=O)(=O)CC1SC(=S)N2c1ccccn1 (centres undefined)
 : 0.67	10%	1	.	.	.	.	0.5	.
> O=C1N[C@H]2CC=C[C@H]2Nc2ccccc21
 : 0.71	3%	.	i	7	11	2.7	-0.1	-9.2
> CCN1C(=O)C(CC(=O)NCCc2ccccc2)N(NC(=O)c2cccnc2)C1=S (centres undefined)
 : 0.68	-3%	0	i	-5	-15	-4.8	1.5	-1.5
> Cc1c(NS(=O)(=O)c2ccc(NC3CCCC3)c([N+](=O)[O-])c2)c(=O)n(-c2ccccc2)n1C
 : 0.65	.	.	i	-3	0	9.4	-0.8	1.5
> COc1cccc(NC(=O)c2nn(C)c3c2CS(=O)(=O)c2ccccc2-3)c1
 : 0.66	1%	-2	i	11	10	-2.5	-6.0	0.4
> CCC1Oc2ccccc2C(=O)N(CC(=O)c2ccc3c(c2)OCCO3)C1=O (centres undefined)
 : 0.66	.	-3	i	2	1	2.1	-6.7	-0.9
